miR-21 reporter: raises the signal of a miR-21 reporter; HeLa miR-21 FLuc reporter, luciferase, 48 h; Potency, µM (series often up to 38.3 µM), for inactives: at the highest dose reporter change, positive = more light; 340,000 tested, under 10 active; active = well fitted rising curve with a large enough effect; inconclusive = small, poorly fitted or top-dose-only effect; inactive = no such curve, though single readings can be large or run the other way;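 also: % of control where 0% means no effect; miR-21 action dims this reporter so a rising signal means less miR-21 action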
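Luminescence from a firefly luciferase reporter carrying a miR-21 binding site downstream, stably expressed under a CMV promoter in HeLa cells that make miR-21 endogenously, reports miRNA modulation after 48 h compound exposure up to approximately 40uM final.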
GLA inh pH 4.5: inhibitors of human alpha-galactosidase A at pH 4.5; 230,000 tested, under 10 active; purified enzyme, 4-MU-alpha-Gal fluorescence, pH 4.5; AID 1467; activity change, negative = inhibition, % at 105 µM; P06280; inconclusive = small, poorly fitted or top-dose-only inhibition, or a rising curve; inactive = flat fitted curve, though single readings scatter; no compound was filed as active;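 also: 0% = full activity with enzyme and -100% = basal without enzyme; dose as in the result columns while the protocol names 77 µM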
Target sequence (P06280 whole entry, looked up): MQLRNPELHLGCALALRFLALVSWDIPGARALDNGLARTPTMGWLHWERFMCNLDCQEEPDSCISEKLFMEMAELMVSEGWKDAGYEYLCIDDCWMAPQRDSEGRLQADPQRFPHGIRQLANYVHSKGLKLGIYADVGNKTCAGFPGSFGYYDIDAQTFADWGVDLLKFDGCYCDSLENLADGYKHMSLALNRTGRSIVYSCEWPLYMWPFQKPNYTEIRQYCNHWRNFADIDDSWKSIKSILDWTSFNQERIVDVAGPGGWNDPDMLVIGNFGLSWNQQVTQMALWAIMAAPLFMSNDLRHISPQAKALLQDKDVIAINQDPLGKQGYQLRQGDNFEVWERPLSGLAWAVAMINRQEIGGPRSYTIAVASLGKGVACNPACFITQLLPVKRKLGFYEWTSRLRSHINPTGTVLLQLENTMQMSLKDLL
Rango-impB inh: inhibitors of Rango-importin beta complex formation | Q14974 | Rango CFP/YFP FRET sensor + importin beta, 45 min | Potency, µM (top dose mostly 92.2 µM), for inactives: at the highest dose inhibition of complex formation | 0.031% of 340,000 active; active = rising FRET ratio curve, often small or poorly fitted; inconclusive = mostly compound fluorescence or quenching in the first reads; inactive = flat curves in all reads;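 also: potency is read from the fitted curve at half-maximal effect; 0% = DMSO wells and 100% = buffer wells lacking importin beta; nearly all actives have a fitted effect of over 15% in size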
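Inhibition scored from the CFP 486 nm/YFP 530 nm FRET ratio 45 min after adding 0.125 microM importin beta to 50 nM Rango biosensor preincubated 5 min with compound (room temperature, PBS with DTT, Tween-20, BSA). No-importin wells as positive control.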
Rango dissoc inh: prevents RanGTP from dissociating the Rango-importin beta complex; Biochemical FRET Rango-importin beta, RanGTP-induced dissociation; Potency, µM (doses to about 46.1 µM), inactives show at the highest dose activity change, negative = inhibition; 0.071% of 340,000 active; active means falling FRET ratio curve, often poorly fitted, with flat reads before Ran was added; inconclusive means other falling curves, or compound fluorescence or quenching; inactive means flat or rising ratio curve;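 also: potency is read from the fitted curve at half-maximal effect; % of control where 0% means no effect; nearly all actives have a fitted effect of over 45% in size; -100% = wells without RanGTP and RCC1; the record marks most hits as doubtful in a second field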
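Compounds preincubate 5 min with complex of recombinant Rango and importin beta in PBS with 1 mM DTT. Ran (0.6 uM) loaded with 2 mM GTP plus 0.2 uM RCC1 starts dissociation; FRET is recorded 45 min later.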
Numbers without * were called inactive; u = inconclusive; x = not tested or not shown; [ ] = remark or other dose. These rows are one share of the data (hit frequency here may not be typical).

SMILES	miR-21 reporter	GLA inh pH 4.5	Rango-impB inh	Rango dissoc inh
CC(C)(C)c1ccc(C(=O)NCCN2CCCC2)cc1	-5.3%	1.1	-4.0%	-12.7%
NC(=S)N/N=C/c1ccc(-c2ccc([N+](=O)[O-])cc2)o1	-26.1%	-4.5	u	u
CC(C)Cc1ccc(C(C)CC2=CCC(CN(C)C)C2=O)cc1 (stereo not given)	x	x	-0.4%	-4.5%
CCOC(=O)C1=C(CN2CCc3ccccc32)NC(=O)NC1c1cccc([N+](=O)[O-])c1 (stereo not given)	13.2%	-11.1	-1.6%	-1.0%
CCC(c1nnnn1C(C)(C)C)N(CCOC)Cc1cc2cccc(C)c2n2nnnc12 (stereo not given)	0.2%	4.1	x	x
O=C1CN(C(=O)/C=C/c2ccc(Cl)cc2Cl)CCN1	-59.4%	-6.2	-4.0%	16.3%
COc1ccc(C2CCCN2C(=S)Nc2cccc(Cl)c2C)cc1OC (stereo not given)	4.1%	-2.8[21.1 µM]	u	u
CCC(=O)Nc1cc2c(cc1C(=O)c1ccccc1)OCCO2	-5.0%	0.6	10.3%	-7.2%
Cc1ccccc1Nc1c(-c2cccnc2)nc2ccccn12	7.7%	-3.8	2.5%	15.7%
Cc1nnc(SCC(=O)N2CCCC2)n1-c1ccc(F)cc1	x	x	-1.3%	31.4%
CCc1ccc(-c2nc(SCC(=O)NC3CCCC3)n[nH]2)cc1	14.6%	x	0.1%	13.7%
Cc1ccc(NC(=O)CSc2nnc(C(F)(F)F)n2C)cc1[N+](=O)[O-]	-7.5%	2.5	-0.7%	6.8%
CC1CC(C)CN(C(=O)C2CCN(S(=O)(=O)c3cccc4cccnc34)CC2)C1 (stereo not given)	-3.6%	x	-0.4%	-9.4%
O=C1CCC(C(=O)N2CCOCC2)CN1Cc1cccc(C(F)(F)F)c1 (stereo not given)	0.0%	x	1.5%	-5.5%
O=C(NCCc1nc2ccccc2[nH]1)/C(=C/c1ccc2c(c1)OCO2)NC(=O)c1ccccc1Cl	16.3%	-3.6	3.2%	-5.6%
CCNC(COC(=O)c1ccc([N+](=O)[O-])cc1)C1CCCCC1 (stereo not given)	x	x	-2.0%	1.6%
O=C(O)Cc1ccc(NC(=O)C2CCCCC2C(=O)O)cc1 (stereo not given)	0.7%	7.3	-0.6%	-5.4%
O=C(O)c1ccc(N=Nc2c(O)[nH]c3ccccc23)cc1	-44.6%	-7.6	u	u
Cc1cccc(-c2cc(C(=O)Nc3sc(C)c(C)c3C(N)=O)c3ccccc3n2)c1	-11.9%	-3.8	u	u
Cc1cccc(N/C=C/C(=O)c2cccs2)c1C	-41.2%	4.2	u	u
COc1ccc(/C=N/NC(=O)c2ccc(NC(=O)c3ccccc3Br)cc2)cc1	-1.7%	3.1	4.8%	8.2%
O=c1[nH]c(/C=C/c2cccc([N+](=O)[O-])c2)c([N+](=O)[O-])c(=O)[nH]1	0.6%	x	3.0%	7.1%
CCn1c(C)c(P(=O)(N2CCOCC2)N2CCOCC2)c2ccccc21	-1.8%	5.2	0.1%	-16.3%
Cc1ccc(S(=O)(=O)Nc2ccc3cn[nH]c3c2)cc1C	x	x	-2.0%	1.3%
Cc1sc2ncnc(N3CCCCC3)c2c1C	-9.2%	-2.5	4.1%	0.5%
Cc1c(NS(=O)(=O)c2ccc(NC3CCCC3)c([N+](=O)[O-])c2)c(=O)n(-c2ccccc2)n1C	-2.0%	7.8	-0.1%	18.0%
Cc1cc(C)nc(N2CCCC(C(=O)NC(C)C)C2)n1 (stereo not given)	-1.2%	-4.4	-0.4%	18.6%
CCCOc1ccc(C(=O)C(c2ccccc2)N2CCOCC2)cc1 (stereo not given)	-5.4%	8.1	0.1%	19.4%
CC(CCc1ccccc1)NC(=O)C(=O)Nc1ccccc1 (stereo not given)	-66.0%	3.1	-3.3%	-13.4%
COc1ccc(S(=O)(=O)N2CCC(C(=O)N[C@H](C(=O)NC3CCCC3)C(C)C)CC2)cc1	-1.0%	x	3.3%	16.4%
FC(F)(F)c1cccc(CN2CCSCC2)c1	0.0%	x	2.8%	7.9%
C[C@@H]1C[C@@H]2OC(=O)[C@]3(C)[C@H]2[C@@H](OC3(C)O)[C@]2(C)C(=O)CC[C@H]12 (stereo not given in full)	1.7%	0.5	x	x
C/C(=N/O)c1no[n+]([O-])c1/C(C)=N\O	4.2%	-8.2	4.0%	4.6%
COc1ccc(C(=O)N2CCN(S(=O)(=O)c3ccc(Cl)cc3)CC2)cc1OC	-0.2%	8.5	5.3%	-1.7%
COc1ccc(-c2nc(CN3CCN(c4ncccn4)CC3)c(C)o2)cc1C	-2.9%	5.3	-0.5%	-1.4%
Cc1ccc(C)c(N/N=C2\CCCNC2=O)c1	-1.8%	-6.2	1.6%	11.3%
COC(=O)c1cc(=O)nc2sc(-c3ccccc3)nn12	-1.1%	-2.9	-0.6%	46.0%
O=C(Nc1ccc(S(=O)(=O)Nc2ncccn2)cc1)c1nn(Cc2ccccc2)c(=O)c2ccccc12	-8.5%	8.7	-5.5%	16.6%
COc1cccc(N2CCN(C(=O)CN(c3cc(C)cc(C)c3)S(=O)(=O)c3c(C)noc3C)CC2)c1	8.6%	x	0.4%	9.4%
CC1(C2(O)CC(c3ccccc3)ON2)CCCCC1 (stereo not given)	-1.6%	-1.4	x	x
COc1ccc(O)c(/C=N/NC(=O)CCC(=O)Nc2cccc(C)c2)c1	20.0%	x	9.7%	-9.4%
CCOc1ccc(C(C(=O)NC2CCCC2)N(Cc2ccccc2)C(=O)c2nsc(Cl)c2Cl)cc1 (stereo not given)	22.3%	-4.1	-2.3%	1.4%
O=C(CCc1ccccc1)Nc1nc2n(n1)C(c1ccccc1)CC(=O)N2 (stereo not given)	1.3%	3.8	-0.3%	3.6%
CN(C)c1ccc(C(=S)N2CCN(S(=O)(=O)c3ccccc3)CC2)cc1	0.7%	x	1.8%	16.4%
Cc1ccc2cccc(OCC(=O)c3cc(C)n(Cc4ccco4)c3C)c2n1	-29.4%	-4.7	x	x
COc1cccc(-c2cc(C(=O)Nc3ccc([N+](=O)[O-])cn3)c3ccccc3n2)c1	8.0%	-6.7	-0.4%	-8.9%
COc1ccc(C/C(N)=N/n2cnnc2)cc1Cl	-3.6%	-5.5	-0.2%	0.6%
O=C(CCNC(=O)c1ccco1)Nc1ccc(N2CCOCC2)cc1	-5.8%	5.7	-4.3%	0.3%
CCN1CCN(C(=O)C2CCCN(c3ncnc4c3nc3n4CCCCC3)C2)CC1 (stereo not given)	0.9%	x	1.2%	-0.4%
O=C(CSc1nc2c(c(=O)[nH]1)CCC2)Nc1ccc(F)cc1	-3.2%	x	-0.5%	4.8%
CCCCN(C(=O)c1ccc(OC(F)(F)F)cc1)c1c(N)n(CCC)c(=O)[nH]c1=O	-1.4%	5.4	-2.4%	0.4%
CC(CCc1ccccc1)NC(=O)CN1CCN(Cc2ccc(Cl)cc2)C1=O (stereo not given)	10.2%	-3.3	-3.3%	24.6%
CCN(CC)S(=O)(=O)c1ccc(N2CC(C(=O)Nc3cccc(C(=O)NC4CC4)c3)CC2=O)cc1 (stereo not given)	x	x	-5.1%	-8.2%
N#Cc1ccc(-n2nccc2-c2cnc3n(c2=O)CCS3)cc1	-4.9%	7.4	-5.4%	4.9%
COc1ccc(S(=O)(=O)Nc2ccccc2C(=O)Nc2nc(-c3ccc(F)cc3)cs2)cc1OC	u	1.2	-1.7%	-4.1%
COc1ccc(C(=O)NNC2CC(=O)N(Cc3ccccc3)C2=O)cc1OC (stereo not given)	-1.0%	0.5	3.9%	-19.0%
CCCSc1cc(Cl)nc(N)n1	-8.4%	4.5	-1.8%	1.3%
O=C(COc1ccc(Br)cc1Cl)N1CCN(c2ccccn2)CC1	-7.6%	x	2.9%	16.7%
COc1ccc(-c2csc(NC(=O)CN3C(=O)C4CCCCC4C3=O)n2)cc1OC (stereo not given)	5.2%	x	2.4%	15.9%
CN(C)S(=O)(=O)c1ccc(C(=O)Nc2ccc3ncccc3c2)cc1	-52.5%	x	1.9%	5.5%

Part of the list above with just Rango-impB inh:
Compound | Rango-impB inh
COc1ccc(S(=O)(=O)Nc2ccccc2C(=O)Nc2nc(-c3ccc(F)cc3)cs2)cc1OC | -1.7%
COc1ccc(C(=O)NNC2CC(=O)N(Cc3ccccc3)C2=O)cc1OC (stereo not given) | 3.9%

Remaining list, next part.
SMILES	miR-21 reporter	GLA inh pH 4.5	Rango-impB inh	Rango dissoc inh
COC(=O)c1ccc(C2/C(=C(/O)c3ccc4c(c3)CC(C)O4)C(=O)C(=O)N2Cc2cccnc2)cc1 (stereo not given)	-0.5%	x	3.7%	1.4%
CC1(C)CC(CCC(=O)Nc2ccc(S(N)(=O)=O)cc2)C(=O)O1 (stereo not given)	-0.5%	7.1	-3.5%	-4.6%
Cc1ccc(NC(=O)CNC(C)c2ccccc2)cc1 (stereo not given)	-42.3%	x	-0.3%	-5.1%
NC(=O)c1ccc(-n2nnnc2Oc2ccccc2)cc1	-11.9%	-0.4	2.1%	9.7%
O=C(COc1ccc(F)cc1)N(Cc1ccc(Cl)cc1)C1CCS(=O)(=O)C1 (stereo not given)	-0.3%	x	-3.4%	-20.7%
O=C(COc1ccccc1[N+](=O)[O-])N1CCC(Cc2ccccc2)CC1	-2.4%	-7.3	u	11.3%
Cc1ccc(S(=O)(=O)N2CCOCC2)cc1C(=O)NCCc1ccc(Cl)cc1	x	x	4.2%	-0.6%
COc1nccnc1NS(=O)(=O)c1ccc(NC(=S)NC(=O)c2cccnc2)cc1	0.5%	1.7	2.4%	9.7%
CCOC(=O)c1ccc(N2C(=O)C3CCCN3C2=S)cc1 (stereo not given)	x	x	-0.1%	1.1%
O=C1CSC(=Nc2ccc(O)cc2)N1	-3.3%	x	1.2%	0.3%
COc1ccc(COC(=O)C2CCN(C(=O)c3ccc(Cl)cc3)CC2)cc1F	x	x	0.4%	-19.7%
O=C(Oc1ccc(NC2=NS(=O)(=O)c3ccccc32)cc1)c1cccnc1	0.3%	2.1	-0.2%	10.0%
COc1cc(CO)cc(Br)c1OCC(=O)N1CCCCC1	-3.3%	5.4	0.7%	0.5%
COc1ccc(CNC(=O)c2cccnc2)cc1	2.5%	x	-3.4%	-5.1%
O=C(NCc1ccc(Cl)cc1)c1cnn2ccccc12	-31.7%	-7.5	-4.3%	-0.3%
O=C(NCc1ccon1)C1CCC(=O)N(Cc2cccc(C(F)(F)F)c2)C1 (stereo not given)	-0.9%	x	4.0%	16.8%
CCOC(=O)N1CCC(NC(=O)c2ccc(CS(=O)c3cccc(Cl)c3)o2)CC1 (stereo not given)	2.8%	x	-1.2%	-3.8%
CC(=O)N1CCC(=NNc2ncc(C(F)(F)F)cc2Cl)CC1	-7.5%	12.3	u	2.1%
COc1ccc(CCNC(=O)Cn2c(=O)n(CC3CCCO3)c(=O)c3ccccc32)cc1OC (stereo not given)	0.5%	6.8	0.5%	4.0%
CC(C)NC(=O)N(Cc1ccc(Cl)cc1)Cc1cccs1	-2.1%	u	0.1%	26.5%
O=C(Cc1cccc2ccccc12)Nc1nnc(-c2cccc([N+](=O)[O-])c2)s1	-3.7%	1.0	-0.4%	0.7%
Cn1c(CNC2CCCCC2)nc2ccccc21	-13.0%	4.7	-0.4%	8.2%
CN(CCCNC(=O)c1ccccc1F)CCCNC(=O)c1ccccc1F	0.2%	x	-6.9%	0.1%
COc1ccc(OCCNc2cc(N3CCOCC3)ccc2[N+](=O)[O-])cc1	-9.7%	-1.6	0.1%	8.2%
Cc1nn(C(=O)c2nn(C)cc2[N+](=O)[O-])c(C)c1Cl	-2.2%	1.8	-2.4%	-5.8%
CC(C)C(=O)N1CCN(c2ccc(NC(=O)c3ccco3)cc2Cl)CC1	-6.1%	x	4.4%	-17.7%
Cc1ccc(NC(=O)c2noc3c2CCCCC3)cc1C	-51.8%	-5.9	0.3%	-6.1%
CCN(CC)c1ccc(/C=N/NC(=O)c2ccco2)cc1	-12.5%	-9.1	u	u
COc1ccc(C(=O)c2ccccc2)cc1Br	-23.2%	-1.2	-1.2%	5.6%

Screening data deposited in PubChem BioAssay by National Center for Advancing Translational Sciences (NCATS).
